GCN5L2 inh: qHTS Assay for Inhibitors of GCN5L2; Histone acetyltransferase KAT2A (Homo sapiens), Q92830; GCN5L2 HAT assay, ThioGlo1 CoA-SH fluorescence; Potency, µM (series often up to 58.9 µM), for the others: top-dose activity change, negative = inhibition, most hits filed as inhibitors; 0.21% of 390,000 active
Target sequence (Q92830 whole entry, looked up): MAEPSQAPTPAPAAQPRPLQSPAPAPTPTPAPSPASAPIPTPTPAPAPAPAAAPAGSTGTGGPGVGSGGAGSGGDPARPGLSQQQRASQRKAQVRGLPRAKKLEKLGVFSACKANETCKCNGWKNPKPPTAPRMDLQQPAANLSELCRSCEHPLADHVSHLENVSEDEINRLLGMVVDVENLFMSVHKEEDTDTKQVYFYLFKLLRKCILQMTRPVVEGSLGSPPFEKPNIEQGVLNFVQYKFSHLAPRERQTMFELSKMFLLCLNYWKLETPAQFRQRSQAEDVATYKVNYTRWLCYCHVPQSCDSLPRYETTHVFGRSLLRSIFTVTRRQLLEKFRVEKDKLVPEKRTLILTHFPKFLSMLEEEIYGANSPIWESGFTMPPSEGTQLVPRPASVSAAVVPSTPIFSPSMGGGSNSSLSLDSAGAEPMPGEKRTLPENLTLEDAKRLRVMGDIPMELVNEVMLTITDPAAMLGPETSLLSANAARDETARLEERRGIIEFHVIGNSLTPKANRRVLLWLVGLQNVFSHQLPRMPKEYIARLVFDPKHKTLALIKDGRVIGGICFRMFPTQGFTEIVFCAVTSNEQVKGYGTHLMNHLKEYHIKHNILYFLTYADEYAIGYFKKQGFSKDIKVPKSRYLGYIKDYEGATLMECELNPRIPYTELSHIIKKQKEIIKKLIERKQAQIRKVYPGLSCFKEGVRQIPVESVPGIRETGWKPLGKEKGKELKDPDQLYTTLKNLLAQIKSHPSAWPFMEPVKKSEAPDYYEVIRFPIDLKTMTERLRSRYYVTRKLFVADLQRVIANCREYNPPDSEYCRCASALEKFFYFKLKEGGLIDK
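Enzyme at 20nM final was mixed with library compounds for 15 min at room temperature. Peptide H3(1-25) at 75uM, acetyl-CoA at 70uM and ThioGlo1 at 50uM were then added. Plates were read immediately and after 20 min (Ex340nm/Em540nm).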
N370S GC: qHTS Assay for Inhibitors and Activators of N370S glucocerebrosidase as a Potential Chaperone Treatment of Gaucher Disease; Lysosomal acid glucosylceramidase (Homo sapiens), P04062; N370S GC spleen homogenate, 4MU-glucoside fluorescence; Potency, µM (highest dose often 59.4 µM), without a hit: top-dose activity change, negative = inhibition, most hits filed as inhibitors; 0.092% of 330,000 active; AID 2101, 2009;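 note: 0% = full enzyme activity and -100% = no enzyme basal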
* hit, by the source's call; ? = inconclusive; . = no result given; & = joins results of further samples; [ ] = remark or other dose. Calls come from the whole dose curve; as a rule, active = well fitted curve in the direction sought with a large enough effect; inconclusive = small, poorly fitted or top-dose-only effect, or another doubt; inactive = no such curve, though single readings can be large; an effect the other way counts as inactive or inconclusive. Unless noted, % is set by controls: 0 for no effect and ±100 for the full control effect; potency is the fitted concentration of half-maximal effect.

N370S GC	GCN5L2 inh	molecule
-11%	2%	COc1ccc(S(=O)(=O)Nc2ccccc2N2CCOCC2)cc1[N+](=O)[O-]
2%	3%	Cn1c(CCN2CCN(c3ccccc3)CC2)nc2cc(NC(=O)c3ccco3)ccc21
.	-4%	O=C(CCn1cnc2ccccc2c1=O)Nc1ccc(Cl)c(Cl)c1
-1%	-4%	CCCn1c(SCC(=O)NC(C)(C)C)nnc1-c1ccco1
-12%	6%	O=C(Cc1ccc2c(c1)CCCC2)Nc1ccccc1Br
5%	2%	CCCCOc1ccc(C(=O)Nc2ccc3c(c2)C(=O)NC3=O)cc1
-12%	-4%	Cc1nc2ccc(N=NC3=C(O)CC(C)(C)CC3=O)cc2s1
-20%	1%	Cc1ccc(-n2cc(CNCC3CC(=O)N(C4CC4)C3)c(-c3cccc(C)c3)n2)cc1 (stereo not drawn)
3%	-5%	Cc1nnnn1CC(=O)Nc1ccccc1[N+](=O)[O-]
?	-4%	O=C(CSCc1nc2ccccc2[nH]1)Nc1ccc(Oc2ccccc2)cc1
4%	-2%	CCCNC(=O)N1CCN(c2nc(C(C)C)c3c(c2C#N)CC(C)(C)OC3)CC1
2%	-2%	CN(CC(=O)Nc1ccccc1N1CCOCC1)CC(=O)Nc1ccc(F)c(F)c1F
-18%	-8%	COc1ccccc1CNC(=O)CCN1C(=O)COc2ccc(C)cc21
3%	-19%	Cn1cccc1C(=O)c1cccc([N+](=O)[O-])c1
-10%	-4%	CC1CN(CC(O)COC2CCC(C(C)(C)C)CC2)CC(C)O1 (stereo not drawn)
20%	-3%	O=C(Nc1ccc(-c2nnc3n2CCCCC3)cc1)c1cc2ccccc2o1
-7%	-7%	CC(C)c1ccc(Nc2ncccc2C#N)cc1
-9%	-8%	CC(C)C(=O)NNC(=O)c1cc2sccc2s1
22%	-1%	C=CCn1c(SCC(=O)OCC)nc(C(F)(F)F)cc1=O
-2%	-11%	Cc1cnc(NC(=O)C2CC=CCC2)s1 (stereo not drawn)

Going on with the list:
N370S GC	GCN5L2 inh	molecule
2%	-3%	CC(C)CN1C(=O)C(NC(=O)C2CC2)(C(F)(F)F)C2=C1CC(C)(C)CC2=O (stereo not drawn)
17%	-11%	Cc1ccc(NC(=O)CN(C)C(=O)CN2C(=O)NC(C)(c3ccccc3)C2=O)cc1 (stereo not drawn)
-5%	-7%	COCCSc1ccccc1C(=O)N1CCc2ccccc21
-18%	2%	O=C(NCCC1CCCCN1S(=O)(=O)c1ccc(F)cc1)C(=O)NCc1ccncc1 (stereo not drawn)
17%	-22%	CC(=Nc1cccc(C)c1)c1sc2ccccc2c1O
5%	-2%	Cc1nc2ccc(S(=O)(=O)NCC(=O)N3CCC(N4CCCCC4)CC3)cc2s1
6%	-1%	O=C(COC(=O)c1ccc([N+](=O)[O-])s1)Nc1cccc(S(=O)(=O)NC2=NCCCCC2)c1
2%	23%	COc1ccc(S(=O)(=O)O)cc1P(=O)(c1ccccc1)c1ccccc1
-14%	-3%	CCOCCCNC(=O)c1ccc2c(c1)ncn2C1CCCC1
6%	-3%	CC(C)CNC(=O)c1c(F)c(F)c(F)c(F)c1F
-10%	-8%	O=C(OCCOCCN=C1NS(=O)(=O)c2ccccc21)c1ccc(F)cc1
?	-8%	CCC(=O)N1CCc2cc(S(=O)(=O)CCC(=O)Nc3cccc(C)n3)ccc21
2%	-5%	Cc1ccc(-c2cc(C(=O)N/N=C/c3cccnc3)n[nH]2)o1
.	2%	CCCNC(=O)Cn1nc(-c2ccc(OC)cc2)c2cnc3ccc(F)cc3c21
.	8%	CCOc1ccc(NC(=O)NCCn2nnc3cc(S(=O)(=O)N(C)C)ccc32)cc1
0%	-1%	CCn1nnc(NC(=O)c2ccccc2Br)n1
-26%	-4%	Cc1ccc(S(=O)(=O)N2CC(=O)Nc3ccccc32)cc1C
2%	-5%	CN(Cc1nc2ccccc2n1C)c1ccccc1
-4%	-3%	O=C(CCC(=O)OCC(F)(F)C(F)F)Nc1ccccc1F
-8%	-4%	CCCn1c(NCc2cccc(OC)c2OC)nc2ccccc21

Further compounds
N370S GC	GCN5L2 inh	molecule
5%	21%	CCn1c2ccccc2c2cc(NC(=S)N3CCOCC3)ccc21
9%	-21%	N/C(=N\c1nc2ccccc2o1)NC(=O)c1ccc([N+](=O)[O-])cc1
6%	-28%	Cc1ccc(C(=O)Nc2nc3ccccc3c(=O)s2)cc1
-12%	0%	COc1ccc(OCC(O)CN2CC(C)OC(C)C2)cc1 (stereo not drawn)
-5%	-10%	CCc1ccc(NC2=CC(=O)C(=O)c3ccccc32)cc1
-2%	-7%	Cc1cccc(C)c1OCCCCn1cnc2ccccc2c1=O
-19%	3%	O=C(c1ccccc1)N1CCN(CC#CC2(O)CCCCC2)CC1
-5%	0%	CC1(C)Cc2c(C#N)c(N3CCN(C(=O)c4ccccc4)CC3)nc(Cc3ccccc3)c2CO1
-19%	4%	Cc1nc2cc(NC(=O)CS(=O)(=O)c3ccc(F)cc3)ccc2s1
.	-4%	C[C@H](CO)N1C[C@H](C)[C@H](CN(C)C)Oc2ccc(NS(=O)(=O)c3ccc(F)cc3)cc2CC1=O
1%	-14%	O=c1cc(C(F)(F)F)c2sc(N3CCCCC3)nc2[nH]1
-22%	-3%	CCOC(=O)C1CCN(C(=O)c2ccc3c(SCC(=O)O)c4c(nc3c2)CCCC4)CC1
-14%	-11%	N#CCCN(C(=O)COC(=O)c1cccc(S(=O)(=O)Nc2ccc([N+](=O)[O-])cc2)c1)c1ccccc1
-1%	?	c1cc2c(cc1-c1csc(NNC3=NCCCCC3)n1)OCCO2
-4%	25%	O=C(CSc1nnc(Nc2ccccc2)s1)NCCN1C(=O)CSC1=O
1%	-1%	COc1ccc(CN(CC(=O)NCc2ccco2)C(=O)CNS(=O)(=O)c2ccc(C)cc2)cc1
-2%	-14%	Cc1ccc2nc(SCC(=O)Nc3ncccn3)[nH]c2c1
-5%	-1%	CCC(=O)N1CC2(C)CN(C(=O)CC)CC(C)(C1)C2
-17%	0%	COc1ccc(CSc2nnc3[nH]c(=O)cc(N)n23)cc1
2%	-5%	O=S(=O)(Nc1ccncc1Cl)c1ccc2ccccc2c1

Quoted at random: 2 records from the list, in no set order.
N370S GC	GCN5L2 inh	molecule
.	-4%	C[C@H](CO)N1C[C@H](C)[C@H](CN(C)C)Oc2ccc(NS(=O)(=O)c3ccc(F)cc3)cc2CC1=O
1%	-14%	O=c1cc(C(F)(F)F)c2sc(N3CCCCC3)nc2[nH]1

Following part.
N370S GC	GCN5L2 inh	molecule
4%	4%	CCC(=O)Nc1nc2nc(-c3ccccc3)cc(-c3ccccc3)n2n1
-12%	-2%	CC(C)c1ccc(NC(=O)NC2(C(=O)NCc3cccnc3)CCCCC2)cc1
.	-8%	Cc1cccc(NC(=O)CCn2nc(C)c3c(C)n(-c4ccccc4)nc3c2=O)c1C
-15%	-4%	O=C(COC(=O)C1CC(=O)N(Cc2ccco2)C1)Nc1ccccc1[N+](=O)[O-] (stereo not drawn)
1%	-12%	Cc1ccc(-c2nc(-c3ccncc3)no2)c(C)c1
7%	1%	CCOc1ccc(CC(=O)NNC(=S)NCCc2ccccc2)cc1
10%	-10%	Cc1ccc(NC(=O)CN(C)Cc2c(O)ccc3ccccc23)cc1
-4%	-5%	O=C(Nc1ccc(F)cc1F)c1cc(=O)n(-c2ccccc2)c(=O)[nH]1
3%	-7%	O=c1cc(O)c2ccccc2[nH]1
4%	-3%	CCN(c1ccccc1C(=O)O)S(=O)(=O)c1cccc2nsnc12
-7%	-9%	CCOc1ccc(N/C(N)=N/c2nc(CSc3nnc(C)s3)cc(=O)[nH]2)cc1
-9%	1%	CC12CN3CC(C)(CN(C1)C3c1ccc3c(c1)OCO3)C2=O (stereo not drawn)
1%	-3%	O=C(Nc1ccccc1)n1cc(-c2ccccn2)c(N2CCOCC2)n1
1%	32%[activator]	O=C(N/N=C\c1cc(Br)c(Br)o1)c1cncc(Br)c1
3%	-6%	O=C(CNC(=O)c1ccc(Cl)c([N+](=O)[O-])c1)OC1CCCCC1=O (stereo not drawn)
-7%	3%	C=C(c1ccccc1Cl)[n+]1ccccc1
-9%	3%	CC(Oc1cccc(Cl)c1)C(=O)NC1CC(C)(C)NC(C)(C)C1 (stereo not drawn)
28%	-6%	CCOC(=O)C1=C(C)NC2=C(C(=O)CC(c3cccs3)C2)C1c1cccs1 (stereo not drawn)
0%	0%	O=C(Nc1nnc(-c2ccccc2F)s1)C1CCN(S(=O)(=O)c2ccc(Cl)cc2)CC1
20%	-16%	O=C(Nc1ccc(F)c(Cl)c1)Nc1csc2ccccc12

Structures above with a cyano group:
N370S GC	GCN5L2 inh	molecule
4%	-2%	CCCNC(=O)N1CCN(c2nc(C(C)C)c3c(c2C#N)CC(C)(C)OC3)CC1
-7%	-7%	CC(C)c1ccc(Nc2ncccc2C#N)cc1
-5%	0%	CC1(C)Cc2c(C#N)c(N3CCN(C(=O)c4ccccc4)CC3)nc(Cc3ccccc3)c2CO1
-14%	-11%	N#CCCN(C(=O)COC(=O)c1cccc(S(=O)(=O)Nc2ccc([N+](=O)[O-])cc2)c1)c1ccccc1

Carrying on.
N370S GC	GCN5L2 inh	molecule
-22%	-2%	CC(=O)N1c2ccc(S(=O)(=O)N3CCC(C(=O)NCc4ccc(C)cc4)CC3)cc2CC1C (stereo not drawn)
-1%	0%	O=C(C1=C[C@H](c2ccc3c(c2)OCO3)C[C@H](OCc2ccc(CO)cc2)O1)N1CCN(Cc2ccc3c(c2)OCO3)CC1
-2%	-3%	COc1ccc(CN=C(NS(=O)(=O)c2cccs2)SC)cc1
-1%	-3%	CC(=O)c1c(N)n(C)c(=O)n(C)c1=O
5%	1%	CCC(=O)Nc1ccc(-c2nnc(SCC(=O)Nc3nccs3)n2C)cc1
-22%	-3%	CN(C)c1ccc(/C=C2\C(=N)N3N=C(CC(=O)N4CCCC4)SC3=NC2=O)cc1Br
-19%	-4%	N#CC1(NC(=O)CSc2nnc(COc3ccccc3F)n2N)CCCCC1
.	-6%	CCOc1ccc(C2C(=O)N(C3CCCCCC3)CC(=O)N2CCc2ccccc2)cc1OC (stereo not drawn)
-2%	0%	CN1CCCCCC1C(=O)N1CCC(N2CCC(C(=O)N3CCOCC3)CC2)CC1 (stereo not drawn)
-1%	-3%	CCOC(=O)c1c(NC(=O)CSc2ncccn2)sc2c1CC(C)(C)NC2(C)C
-1%	?	Cc1ccc(Cl)cc1NC(=O)CCC(=O)O
1%	-7%	CC(C)C(NC(=O)C(C)N1C(=O)c2ccccc2C1=O)c1ccccc1 (stereo not drawn)
-4%	-11%	O=C(NC1CCN(S(=O)(=O)c2cccc(F)c2)CC1)c1cccc(F)c1
9%	-1%	COc1ccc(Oc2ncccc2NC(=O)c2cccc(C)c2C)cc1
-14%	-1%	O=S(=O)(CC(CN1CCCCC1)N1CCCCC1)c1ccc2ccccc2c1 (stereo not drawn)
-2%	-5%	CC(C(=O)NCCN1C(=O)S/C(=C\c2cccs2)C1=O)N1C(=O)c2ccccc2C1=O (stereo not drawn)
-15%	-7%	CCn1c(SCC(=O)N2CCCc3ccccc32)nnc1-c1cccs1
13%	-8%	CCCCOc1ccc(C(=O)Nc2ccc(N3CCN(C(=O)C(C)C)CC3)cc2)cc1
-2%	-14%&-4%	CCc1ccc(NC(=O)Cn2ccn(-c3cccc(Cl)c3)c(=O)c2=O)cc1
.	-5%	Cc1cc(C(F)(F)F)n2ncc(-c3ccc(F)cc3)c2n1

Four structures out of the list, arranged by length of the SMILES, high to low.
N370S GC	GCN5L2 inh	molecule
-22%	-2%	CC(=O)N1c2ccc(S(=O)(=O)N3CCC(C(=O)NCc4ccc(C)cc4)CC3)cc2CC1C (stereo not drawn)
-4%	-11%	O=C(NC1CCN(S(=O)(=O)c2cccc(F)c2)CC1)c1cccc(F)c1
9%	-1%	COc1ccc(Oc2ncccc2NC(=O)c2cccc(C)c2C)cc1
-1%	-3%	CC(=O)c1c(N)n(C)c(=O)n(C)c1=O

More results
N370S GC	GCN5L2 inh	molecule
.	-4%	COC(=O)c1cccc(S(=O)(=O)N2CCOCC2)c1
3%	2%	COc1ccccc1COC(=O)C(NC(=O)c1ccc(C)cc1)C(C)C (stereo not drawn)
.	13%	Cc1ccc(-c2nc(SCc3ccc(Br)cc3)n3[nH]c(=O)cc3n2)cc1
-9%	-1%	CCOc1ccc(NC(=O)CCCNC(=O)Cn2cnc3sc(C)c(C)c3c2=O)cc1
?	35µM*	CCOCC(=O)Nc1ccc(-c2cn3cccnc3n2)cc1
9%	-9%	Cc1ccc(N2C(=O)N(CC(=O)Nc3ccc(C)cc3C)C(=O)C2C)cc1 (stereo not drawn)
7%	1%	CSc1ccc(S(=O)(=O)NC2CCCCC2)cc1
?	1%	COc1ccc2nc(Cl)c(/C=N/Nc3ccccn3)cc2c1
.	-3%	O=S(=O)(c1ccc2c(c1)OCCO2)N1CCN(S(=O)(=O)c2c(F)cc(F)cc2F)CC1
-9%	-2%	CCCCn1c2ccccc2c2cc(CC(N)=O)ccc21
16%	-1%	Cc1ccc(NCC(=O)Nc2c(C)n(C)n(-c3ccccc3)c2=O)cc1S(=O)(=O)N(C)C
28%	4%	CC(C)(C)c1nc(NC(=O)Nc2ccccc2)sc1Br
2%	-1%	CN(C)S(=O)(=O)c1ccc(Cl)c(NC(=O)COC(=O)CCC(=O)c2cccs2)c1
12%	-14%	COCC(C)n1c(C)cc(C(=O)COC(=O)c2oc3ccccc3c2C)c1C (stereo not drawn)

Bioassay records deposited in PubChem by National Center for Advancing Translational Sciences (NCATS).

Not all compounds are listed, and most or all hits are left out here.
